Screening results from PubChem BioAssay.
TRPML1 agonist: human mucolipin-1 channel agonism; hit rate 0.12% among 410,000; activation, % (concentration not given with the values); Q9GZU1; AID 624414; TRPML1-expressing cells, Ca2+ dye fluorescence, FDSS; host cell line not named in the record; reference of the full effect not given here; in the data active = activation above about 50%; inconclusive = about 30% to 50%; inactive = below about 30%; note: 0% is about no effect; the text of the record puts the active cut at 80%
Target sequence (Q9GZU1 whole entry, looked up): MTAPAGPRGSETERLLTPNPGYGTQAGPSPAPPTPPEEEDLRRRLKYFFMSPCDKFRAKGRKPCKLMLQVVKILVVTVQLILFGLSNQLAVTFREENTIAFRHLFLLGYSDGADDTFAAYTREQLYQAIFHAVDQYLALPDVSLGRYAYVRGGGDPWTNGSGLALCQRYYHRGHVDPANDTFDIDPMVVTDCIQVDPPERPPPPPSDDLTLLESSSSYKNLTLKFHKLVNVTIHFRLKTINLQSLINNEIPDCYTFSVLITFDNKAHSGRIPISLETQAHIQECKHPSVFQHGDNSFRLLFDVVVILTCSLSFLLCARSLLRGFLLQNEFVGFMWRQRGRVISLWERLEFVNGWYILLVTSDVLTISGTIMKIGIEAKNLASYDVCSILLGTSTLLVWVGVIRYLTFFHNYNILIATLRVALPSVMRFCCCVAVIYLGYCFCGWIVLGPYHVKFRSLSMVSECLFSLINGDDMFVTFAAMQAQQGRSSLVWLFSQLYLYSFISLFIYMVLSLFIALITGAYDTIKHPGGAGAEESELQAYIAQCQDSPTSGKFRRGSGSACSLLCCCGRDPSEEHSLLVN
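Tet-induced TRPML1-DL cells, 1,500 per well, cultured overnight, were loaded with a no-wash Ca2+ dye for 45–90 min. Calcium fluorescence was recorded on the FDSS for 110 s after compound addition, before the EC80 agonist (4 uM 54-4) was added.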
Six1-Eya2 inh: Six1/Eya2 interaction inhibition | Q15475+O00167 | AlphaScreen GST-Six1/His-Eya2 binding, biochemical; stronger effect = lower value; control for the full effect not named in the record | activity change, % (concentration not given with the values) | hit rate 0.56% among 360,000 | AID 651725; in the data active = activity change below about -65%; inconclusive = about -30% to -65%; inactive = above about -30%; note: % is set by controls: 0 for no effect and ±100 for the full control effect
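GST-Six1 + His-Eya2 (5X stock: 250/500 nM); Tris pH 8.0, 300 mM NaCl, 0.05% BSA, 0.02% Tween 20; GSH donor/Ni acceptor beads; 1 h 37 °C dark; AlphaScreen readout.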
TRPML1 blocker: inhibitors of human TRPML1 channel; TRPML1-inducible cells, Ca2+ dye fluorescence, FDSS; stronger effect = lower value; inhibition of EC80 agonist-evoked calcium signal; hit rate 0.02% among 390,000; activity change, negative = inhibition, % (concentration not given with the values); Q9GZU1; in the data active means activity change below about -50%; inconclusive means about -30% to -50%; inactive means above about -30%;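 note: stimulus is agonist 54-4 at its EC80 concentration; % is set by controls: 0 for no effect and ±100 for the full control effect; compound concentration not given in the record; the text of the record puts the active cut at -80%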
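TRPML1-DL cells, Tet-induced overnight (~16 h, 37 °C) at 1,500 cells/well, were loaded with Ca8 no-wash dye plus quencher for 45-90 min at room temperature. Compounds were pinned during FDSS kinetic reading; agonist 54-4 at EC80 (4 uM final) then added.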
D2 agonist: activates the human D2 dopamine receptor. hit rate 0.084% among 360,000. activation, % (concentration not given with the values). P14416. DiscoveRx PathHunter D2 beta-arrestin, luminescence, 90 min; 100% = 57 uM dopamine signal; in the data active = activation above about 40%; inconclusive = about 15% to 40%; inactive = below about 15%; note: compound concentration not given in the record; the text of the record calls up to 30% inactive
Target sequence (P14416 whole entry, looked up): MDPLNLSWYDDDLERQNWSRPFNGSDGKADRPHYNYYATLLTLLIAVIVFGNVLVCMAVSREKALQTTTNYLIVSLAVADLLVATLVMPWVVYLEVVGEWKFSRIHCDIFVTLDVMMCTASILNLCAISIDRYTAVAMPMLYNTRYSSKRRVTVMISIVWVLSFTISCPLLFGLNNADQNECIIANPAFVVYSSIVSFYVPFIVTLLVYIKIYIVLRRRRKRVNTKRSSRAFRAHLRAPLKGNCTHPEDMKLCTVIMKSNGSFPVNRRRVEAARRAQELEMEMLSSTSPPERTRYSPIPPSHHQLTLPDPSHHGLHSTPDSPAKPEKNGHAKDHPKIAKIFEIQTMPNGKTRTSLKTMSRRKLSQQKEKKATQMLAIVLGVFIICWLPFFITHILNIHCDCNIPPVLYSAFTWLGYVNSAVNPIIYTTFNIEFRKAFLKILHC
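Agonist mode: compounds alone added to overnight-plated D2 PathHunter cells for 90 min at 37 C, with 57 uM final dopamine (EC100) defining full response. Beta-arrestin recruitment detected by chemiluminescent reagent, read after 1 h at ambient temperature.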
PINK1 modulator: changes PINK1 expression; PINK1 immunofluorescence, high-content cytometry, 24 h; Potency, µM (doses to about 76.6 µM), without a hit: top-dose activation (PINK1 increase), hits mostly activators; hit rate 0.2% among 410,000; active = well fitted activation curve with a large enough effect; inconclusive = small, poorly fitted or top-dose-only effect; inactive = flat fitted curve, though single readings scatter; cell line not stated here;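 note: potency is the fitted concentration of half-maximal effect; % of control where 0% means no effect; nearly all actives have a fitted effect of over 65% in size; a mitochondrial uncoupler was the plate control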
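Stable cell line treated 24 h with compounds at 5 concentrations (CCCP controls), then fixed and immunostained for PINK1 plus nuclear and cell stains; PINK1 immunofluorescence quantified by laser-scanning microplate cytometry.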
D2 potentiator: potentiates the human D2 dopamine receptor allosterically | P14416 | DiscoveRx D2 beta-arrestin cells, luminescence, 90 min; 100% = 57 uM dopamine signal | potentiation, % (concentration not given with the values) | hit rate 0.23% among 360,000; active = potentiation of 50% or more; inconclusive = 30% to 50%; inactive = 30% or less;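 note: compound concentration not given in the record; tested on top of an EC20 dose of dopamine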
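PathHunter beta-arrestin assay in DiscoveRx D2 cells. Compounds were added with an EC20 of dopamine (50 nM final) for 90 min at 37 deg C. Luminescence was read 1 h after detection reagent, with 57 uM dopamine as the EC100 control.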
Active calls of the source: *; ? = inconclusive; . = no result given; & = joins results of further samples; [ ] = remark or other dose.

Compound	TRPML1 agonist	Six1-Eya2 inh	TRPML1 blocker	D2 agonist	PINK1 modulator	D2 potentiator
O=C1CN(C(=O)c2ccc(S(=O)(=O)N3CCCCC3)cc2)C(c2ccc(F)cc2)c2cc(Cl)ccc2N1 (configuration not stated)	-0.1	.	-5.9	.	-0.2%	.
CC(C(=O)N1CCc2ccccc2C1)N1C(=O)c2ccccc2C1=O (configuration not stated)	-0.3	-5.2	18.0	-0.7	0.7%	-7.7
NC(=O)c1c(NC(=O)c2nc(SCc3ccccc3F)ncc2Cl)sc2c1CCCC2	0.2	.	-8.0	.	2.5%	.
CC1CC(=S)Nc2ccccc2N1Cc1ccccc1 (configuration not stated)	4.0	-27.5	14.4	-3.4	3.3%	-18.7
CC1CCCC(C)N1/N=C/c1ccccc1OC(F)F (configuration not stated)	0.2	-9.7	14.0	1.3	16.0%	-0.9
Cc1cccc(OCCCCc2c(C)n[nH]c2C)c1	4.0	2.5	8.7	2.1	?	-5.6
O=C(CCc1c[nH]c2ccccc12)OCC(=O)N1CCN(S(=O)(=O)c2ccccc2)CC1	-0.4	-1.5	1.3	-0.9	-0.3%	6.5
CN=C1SC(CC(=O)Nc2sc3c(c2C#N)CCCC3)C(=O)N1C (configuration not stated)	0.1	-0.9	-4.8	1.8	1.1%	-2.6
COCCNC(=O)C(OC(=O)CC1Sc2ccccc2NC1=O)c1ccncc1 (configuration not stated)	-0.5	0.2	-5.8	1.9	0.6%[38.3 µM]	-13.1
O=C(CN1CCN(S(=O)(=O)c2ccc(Br)cc2)CC1)c1ccc(O)c(O)c1	0.7	-8.0	-20.3	-1.2	-1.4%	-4.7
O=C(NC(=O)c1ccncc1)NC(c1ccccc1)c1ccccc1	0.5	2.1	23.5	-3.6	1.1%[38.3 µM]	-10.3
CCCCOc1ccc(Cl)cc1CSc1nnc(CC)n1N	0.8	-4.1	5.1	1.5	-0.5%[38.3 µM]	8.8
O=C(c1ccc(NS(=O)(=O)c2cccc3cccnc23)cc1)N1CCOCC1	0.4	3.4	-3.7	3.5	1.3%	-0.9
O=C(O)C1=NN(c2ccccc2)C(=O)CC1	-0.2	7.1	2.9	1.1	-0.6%	-1.8
Cc1c(OCC(=O)NCc2ccccn2)ccc2c3c(c(=O)oc12)CCCC3	1.2	3.6	5.2	-1.9	4.9%	-6.4

Next section, starting with the last two of the part before.
Compound	TRPML1 agonist	Six1-Eya2 inh	TRPML1 blocker	D2 agonist	PINK1 modulator	D2 potentiator
O=C(O)C1=NN(c2ccccc2)C(=O)CC1	-0.2	7.1	2.9	1.1	-0.6%	-1.8
Cc1c(OCC(=O)NCc2ccccn2)ccc2c3c(c(=O)oc12)CCCC3	1.2	3.6	5.2	-1.9	4.9%	-6.4
O=C(O)Cn1c(=O)n(Cc2ccccc2)c2ccccc21	0.7	9.0	1.4	-5.9	3.9%	-4.9
COc1ccc(C2=C(C(C)=O)Sc3nnc(-c4ccccc4)n3N2C(C)=O)cc1	3.2	.	47.9	.	-0.9%	.
CCN(CC)C(=O)C(=O)N/N=C/c1ccc(C(=O)OC)cc1	0.0	-6.7	-0.4	-7.4	4.3%	-3.8
Cc1ccc(-c2nnc(Nc3cccc(O)c3)c3ccccc23)cc1S(=O)(=O)NCCO	1.1	?	-6.8	-1.3	1.3%	-11.7
CCCN(Cc1ccc(C)cc1)C(=O)c1ccc(CNS(=O)(=O)c2ccc(C(C)=O)cc2)cc1	-0.2	-7.6	-13.9	-0.6	-2.0%	-1.3
O=c1c2[nH]c3ccccc3c2ncn1Cc1ccccn1	0.3	0.3	-9.5	-0.6	0.5%	-25.1
Cn1c(N2CCOCC2)nc(-c2ccccc2)c1-c1ccccc1	-0.4	-14.8	10.0	-2.9	1.7%[38.3 µM]	-11.2
COC(=O)c1ccccc1NC(=O)CSc1nc(-c2ccco2)cc(C(F)(F)F)n1	-0.4	3.3	38.5	0.7	?	-5.2
CCCNS(=O)(=O)c1cc(CN2C(=O)c3cccnc3C2=O)ccc1OC	1.4	-3.5	8.3	8.2	-1.6%	0.1
CCCn1c(C(CO)Nc2nc(C)cs2)nc2ccccc21 (configuration not stated)	-0.9	-0.4	23.5	-2.4	0.4%	-6.6
CCN(CC)C(=O)CN1C(=O)c2cccc3cccc1c23	-1.0	-0.1	-12.3	-3.0	1.2%	-33.3
Cc1c2cnn(CC(=O)O)c(=O)c2c(C)n1Cc1ccccc1	0.1	-1.3	34.4	-4.9	-0.2%	-9.3
CCOCCCNC(=O)Cn1nc(-c2ccc(OC)c(OC)c2)ccc1=O	0.1	1.8	-7.8	-2.9	1.4%	-3.9
COc1ccc(C(=O)N=C2SC3CS(=O)(=O)CC3N2c2ccccc2)cc1OC (configuration not stated)	-0.3	0.5	-5.4	-2.7	-0.1%	-8.5
COc1ccccc1CN(C)CC(=O)NC1CCCc2ccccc21 (configuration not stated)	1.9	-2.9	8.2	0.3	1.5%	-6.4
COCCC(=O)N1CCC(Oc2ccc(C(=O)NCCc3ccccn3)cc2)CC1	-0.2	9.3	1.6	-3.4	-1.4%	-8.4
CCCCCN1N=C(C)CC1=O	-0.6	3.3	21.5	-10.0	-0.7%	-20.3
CCOc1ccc(NC(=O)N2CCN3CCCCC3C2)cc1 (configuration not stated)	-0.2	.	-16.8	.	0.3%	.
CSc1ccc(CNC(=O)Cn2c(-c3cccs3)cc3cc(F)ccc32)cc1	0.2	.	26.6	.	6.9%	.
CCCCNC(=S)NNC(=O)C1=NN(c2cc(C)ccc2C)C(=O)CC1	1.8	-10.3	-20.4	-8.5	-2.1%	-10.0
CC1Cc2ccccc2N1C(=S)Nc1ccc(S(N)(=O)=O)cc1 (configuration not stated)	-0.1	0.7	6.1	1.9	-1.1%	-1.2
COc1cc(C(=O)Nc2ccc(NC(=O)c3ccccc3Cl)nc2)cc(OC)c1OC	2.2	-21.7	7.4	2.3	1.9%	9.2
COc1ccc(-c2c3c(=O)n(C)c(=O)n(C)c3c3c(-c4cccc(C)c4)nc4ccccc4n23)cc1	-0.9	.	6.4	.	8.1%	.
Cc1ccc(CN(C(=O)c2cc(=O)c3cc(Cl)c(C)cc3o2)C2CCS(=O)(=O)C2)cc1 (configuration not stated)	1.3	-4.7	15.7	-3.5	-3.0%[38.3 µM]	-21.0
CCCN(Cc1cc2cc(OC)ccc2[nH]c1=O)C(=O)c1ccco1	-0.8	8.1	-10.8	-1.2	-2.3%	2.2
COc1ccccc1N1CCN(C(=O)CCCCCn2c(=S)[nH]c3cc4c(cc3c2=O)OCO4)CC1	1.5	-6.0	-1.1	1.2	8.2%	-6.4
CCCCNC(=O)CCn1c(=O)c2ccccc2n(Cc2cc(C)ccc2C)c1=O	-0.9&-0.1	16.0	-0.9&0.2	-1.1	-0.8%&16.5%	-0.1
Cc1ccc(C(=O)c2oc3ccccc3c2NC(=O)COc2ccc(C(C)C)cc2)cc1	2.5	.	-2.9	.	3.9%	.
CC[N+](C)(CC)CCOC(=O)C1c2ccccc2Oc2ccccc21	-0.8	-5.6	11.4	-5.1	-0.2%	-5.7
COc1ccc(N2CCN(c3ccc([N+](=O)[O-])cc3Cl)CC2)cc1	0.7	-16.1	6.3	-1.7	-0.3%	-9.6
Cc1noc(C)c1CSCC(=O)N(C)CC(=O)Nc1ccccc1C(F)(F)F	-1.2	5.1	9.5	-0.4	0.3%	-11.8
CC(=O)N1N=C(c2ccncc2)CC1c1ccccc1O (configuration not stated)	-0.7	1.0	-6.2	5.6	3.0%	-0.2
CCOC(=O)c1c(-c2ccc(C)o2)csc1NC(=S)NC(=O)c1ccc(F)cc1	0.0	0.0	7.1	-4.8	8.4%	-26.3
CCCCNC(=O)C1CCCN(S(=O)(=O)c2c(C)noc2/C=C/c2cccs2)C1 (configuration not stated)	1.4	6.0	8.3	-3.4	5.4%	-13.4
CCOC(=O)CSc1nc2ccccc2c(=O)n1CCN1CCOCC1	-0.6	-0.8	-4.1	-0.7	-1.5%[38.3 µM]	-6.8
CC(=O)Nc1ccc(NC(=O)c2ccccc2N(Cc2ccccc2)S(C)(=O)=O)cc1	0.7	-5.1	6.9	-2.6	0.8%	-1.7
O=C(C[n+]1cc[nH]c1)c1ccc(Cl)cc1	0.9	-9.0	46.3	-3.6	0.0%	-8.6
CCc1ccc(NC(=O)C(=O)N/N=C(\C)CC(=O)NCc2ccc(Cl)cc2)cc1	1.0	-4.3	9.0	-3.6	6.6%	-2.8
CCC(C)(C)n1nnnc1C(c1cc2cc(OC)ccc2[nH]c1=O)N1CCc2ccccc21 (configuration not stated)	1.2	-20.9	7.9	-0.7	1.4%	-10.6&-33.9

Copied from the entries so far, twelve compounds:
Compound	TRPML1 agonist	Six1-Eya2 inh	TRPML1 blocker	D2 agonist	PINK1 modulator	D2 potentiator
CCCN(Cc1cc2cc(OC)ccc2[nH]c1=O)C(=O)c1ccco1	-0.8	8.1	-10.8	-1.2	-2.3%	2.2
COc1ccccc1N1CCN(C(=O)CCCCCn2c(=S)[nH]c3cc4c(cc3c2=O)OCO4)CC1	1.5	-6.0	-1.1	1.2	8.2%	-6.4
CCCCNC(=O)CCn1c(=O)c2ccccc2n(Cc2cc(C)ccc2C)c1=O	-0.9&-0.1	16.0	-0.9&0.2	-1.1	-0.8%&16.5%	-0.1
Cc1ccc(C(=O)c2oc3ccccc3c2NC(=O)COc2ccc(C(C)C)cc2)cc1	2.5	.	-2.9	.	3.9%	.
CC[N+](C)(CC)CCOC(=O)C1c2ccccc2Oc2ccccc21	-0.8	-5.6	11.4	-5.1	-0.2%	-5.7
COc1ccc(N2CCN(c3ccc([N+](=O)[O-])cc3Cl)CC2)cc1	0.7	-16.1	6.3	-1.7	-0.3%	-9.6
Cc1noc(C)c1CSCC(=O)N(C)CC(=O)Nc1ccccc1C(F)(F)F	-1.2	5.1	9.5	-0.4	0.3%	-11.8
CC(=O)N1N=C(c2ccncc2)CC1c1ccccc1O (configuration not stated)	-0.7	1.0	-6.2	5.6	3.0%	-0.2
CCOC(=O)c1c(-c2ccc(C)o2)csc1NC(=S)NC(=O)c1ccc(F)cc1	0.0	0.0	7.1	-4.8	8.4%	-26.3
CCCCNC(=O)C1CCCN(S(=O)(=O)c2c(C)noc2/C=C/c2cccs2)C1 (configuration not stated)	1.4	6.0	8.3	-3.4	5.4%	-13.4
CCOC(=O)CSc1nc2ccccc2c(=O)n1CCN1CCOCC1	-0.6	-0.8	-4.1	-0.7	-1.5%[38.3 µM]	-6.8
CC(=O)Nc1ccc(NC(=O)c2ccccc2N(Cc2ccccc2)S(C)(=O)=O)cc1	0.7	-5.1	6.9	-2.6	0.8%	-1.7

Random draw from the library, and some 1% of all compounds hit somewhere here.
